Screening results from PubChem.
KCNQ2 block – KCNQ2 channel blockers in CHO-K1 cells – cell-based, FluxOR thallium flux, B-score, primary screen (AID 2156). O88943. 20 min; stronger effect = lower value; only compounds with negative scores are shown here; some inactives read as strong as hits. B-score at 10 µM. 1.1% of 310,000 active;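 active = fluorescence ratio B-score at most minus 3 library SDs, with starting brightness B-score within 2 library SDs, cut at about -5.5 in these data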
Target sequence (O88943 whole entry, looked up): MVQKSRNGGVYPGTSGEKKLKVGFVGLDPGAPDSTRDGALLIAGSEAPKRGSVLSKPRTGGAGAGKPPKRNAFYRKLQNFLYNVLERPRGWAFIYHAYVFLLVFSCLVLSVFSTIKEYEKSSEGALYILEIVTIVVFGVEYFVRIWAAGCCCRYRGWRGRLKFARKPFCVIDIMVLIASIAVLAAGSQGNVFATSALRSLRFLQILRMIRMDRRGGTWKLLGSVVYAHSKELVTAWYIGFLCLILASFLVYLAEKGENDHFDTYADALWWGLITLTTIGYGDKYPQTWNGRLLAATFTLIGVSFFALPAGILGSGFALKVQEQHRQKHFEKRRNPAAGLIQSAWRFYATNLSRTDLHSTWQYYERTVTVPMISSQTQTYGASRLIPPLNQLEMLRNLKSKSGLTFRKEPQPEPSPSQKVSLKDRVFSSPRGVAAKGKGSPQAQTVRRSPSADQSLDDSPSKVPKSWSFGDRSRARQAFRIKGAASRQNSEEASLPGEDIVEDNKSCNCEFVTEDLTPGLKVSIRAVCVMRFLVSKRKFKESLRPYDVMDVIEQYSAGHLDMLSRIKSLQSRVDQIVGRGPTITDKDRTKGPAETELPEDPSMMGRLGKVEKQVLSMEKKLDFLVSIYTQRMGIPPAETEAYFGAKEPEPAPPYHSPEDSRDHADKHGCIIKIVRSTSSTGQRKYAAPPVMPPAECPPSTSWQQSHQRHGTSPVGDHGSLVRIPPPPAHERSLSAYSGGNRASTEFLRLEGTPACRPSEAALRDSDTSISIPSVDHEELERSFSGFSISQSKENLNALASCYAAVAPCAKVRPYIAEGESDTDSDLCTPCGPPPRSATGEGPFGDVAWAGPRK
KCNQ2 block baseline – recorded beside KCNQ2 block, whose call it bears; B-score; measured here: initial fluorescence intensity artifact check;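 brightness before thallium and not channel activity; 0 = typical well and far values either way flag optical interference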
Active calls of the source: *; i = inactive. These rows are one share of the data; rates above refer to the full screens.

SMILES | KCNQ2 block | KCNQ2 block baseline
O=C(NCC(c1cccs1)N1CCOCC1)c1cc(-c2ccc(F)cc2)nc2ccccc12 (stereo not drawn) | i | -1.61
NC(=O)N/N=C/c1coc2ccc(O)cc2c1=O | i | 0.57
Cc1cccc2sc(NS(C)(=O)=O)nc12 | i | -0.6
COc1cc(C(=O)N/N=C(\C)Cn2nc([N+](=O)[O-])cc2C)ccc1O | i | -0.92
COc1cc(/C=C2/C(=O)N(c3ccc(Br)cc3)N=C2C)cc(OC)c1OC | i | -0.52
CC(C)N1CCc2c(sc(NC(=O)c3nc4ccccc4s3)c2C(N)=O)C1 | i | -0.52
CC1(C)COCN1C(=O)c1ccc(C#N)cc1 | i | -0.1
COc1ccc(CCNC(=O)C2CCN(S(=O)(=O)c3ccc(SC)cc3)CC2)cc1 | i | 1.68
COc1cc(/C=C2/NC(=O)N(CC(=O)Nc3ccc(C)cc3)C2=O)ccc1Oc1ccc([N+](=O)[O-])cn1 | i | -1.02
CCCCc1nnc(SC(C)C(=O)Nc2nccs2)n1C (stereo not drawn) | i | -0.11
Cc1ccc(C(=O)NCCN2CCOCC2)c(Cl)c1 | i | -0.07
C/C(CC(=O)Nc1ccc(N(C)C)cc1)=N\NC(=O)c1ccc(C(C)(C)C)cc1 | i | 0.08
Cc1cc2nc(=O)c(/C=C3\C=Nc4ccccc43)c(N)n2o1 | i | -0.03
CCN(Cc1ccccc1)S(=O)(=O)c1ccc(C(=O)N(CCCN(C)C)c2nc3cc(C)cc(C)c3s2)cc1 | i | 0.75
CCOC(=O)Cc1csc(NC(=O)CCc2ccccc2)n1 | i | -0.31
Cc1cc(N(CN2CCCC2=O)C(=O)c2ccccc2)no1 | i | -0.04
COC1(C)CC2C(CC1OC(=O)c1cc([N+](=O)[O-])cc([N+](=O)[O-])c1)C2(C)C (stereo not drawn) | i | 0.27
Cc1ccccc1-c1nn(-c2ccc(F)cc2F)cc1CNCC(C)O (stereo not drawn) | i | 0.42
CN1CCN(C(=O)CN(CCc2ccccc2)S(C)(=O)=O)CC1 | i | 2.82
O=C(Nc1ccc(Cl)c(Cl)c1)N(Cc1cccnc1)Cc1ccco1 | i | -2.15
COc1ccc(NC(=O)C2CCCN(S(=O)(=O)c3cccc4cccnc34)C2)c(OC)c1 (stereo not drawn) | i | -1.33
CC(C)CN(C(=O)CSc1nnc2ccccn12)c1c(N)n(CC(C)C)c(=O)[nH]c1=O | i | 1.93
COc1ccc(Cn2c3ccc(OC)cc3c3nc4ccccc4nc32)cc1 | i | 0.06
NC(=O)c1nsc(C(=O)N(Cc2ccc(F)cc2)C(C(=O)NCC2CCCO2)c2ccc(O)cc2)c1N (stereo not drawn) | i | 1.16
COCCNC(=S)N1CCN(c2nc(-c3cccc(OC)c3)cs2)CC1 | i | 1.71
COc1ccc(C(c2nnnn2Cc2ccc(F)cc2)N2CCN(c3ccc(OC)cc3)CC2)cc1 (stereo not drawn) | i | -1.87
COc1ccc(NC(=O)c2cccnc2Sc2ccccc2)c(OC)c1 | i | -0.33
CCN(C(=O)COC(=O)c1cc(-c2ccccc2)nc2ccc(Br)cc12)C1CCS(=O)(=O)C1 (stereo not drawn) | i | -0.46
CCCn1c(SCC(=O)Nc2nc3ccccc3s2)nc2c1c(=O)n(C)c(=O)n2C | i | 2.48
COc1cccc(-c2ccc(C#N)c(SCC(=O)NCCc3cccc(Cl)c3)n2)c1 | i | 1.93
Cc1cc(N2CCN(C(=O)c3ccco3)CC2)nc(-c2ccccc2)n1 | i | -0.07
O=C1Nc2c(c(=O)[nH]c(=O)n2-c2ccccc2)C1(Nc1ncccn1)C(F)(F)F (stereo not drawn) | i | -0.08
COc1ccc(N(CC(O)Cn2cnc3ccccc32)S(=O)(=O)c2ccc(C)cc2)cc1 (stereo not drawn) | i | -1.53
Cc1c(C2=CCN(S(=O)(=O)c3ccc(Cl)cc3)CC2)c2ccccc2n1C | i | -0.46
COc1ccc(C(=O)NC(=S)N2CCCc3ccccc32)cc1OC | i | -0.38
S=c1[nH]nc(-c2ccc(Br)cc2)n1-c1ccc2c(c1)OCCO2 | i | -0.79
Cc1onc(-c2ccccc2Cl)c1C(=O)NCc1cccnc1 | i | 1.24
CCCCS(=O)(=O)Nc1ccc(C(=O)NCC2CCCO2)cc1 (stereo not drawn) | i | 0.07
CCOC(=O)C1CCN(C(c2cccnc2)c2c(NC(=O)c3ccco3)sc(C)c2C)CC1 (stereo not drawn) | i | 0.88
COc1cc(OC)cc(C(=O)N2CCN(C(=O)c3ccc(-c4ccccc4)cc3)CC2)c1 | i | 0.85
Cc1cc(=O)oc2c(C)c(OCC(=O)N3CCN(c4ccc(F)cc4)CC3)ccc12 | i | -1.37
COc1ccc(S(=O)(=O)NCc2ccc3c(c2)OCO3)cc1C | i | 1.25
Cc1cc(C)cc(C(=O)N(NC(=O)Nc2ccc(Cl)cc2)C(C)(C)C)c1 | i | 0.01
Cc1ccc(OC(C)C(=O)Nc2ccccc2C(=O)NCc2cccnc2)cc1C (stereo not drawn) | i | -3.71
CN1CCN(C(=S)NC(=O)/C=C/c2cccc3ccccc23)CC1 | i | 1.51
C1CCN(c2nc3nonc3nc2N2CCCCC2)CC1 | i | 0.98
Cc1c(-c2ccco2)[n+](=O)c2c(n1[O-])CCCCC2 | i | 0.72
CC(=O)Nc1cccc(NC(=O)C2CCN(C(=O)c3ccco3)CC2)c1 | i | -1.59

Reprinted at random: two entries already listed, in no set order.
SMILES | KCNQ2 block | KCNQ2 block baseline
COc1ccc(S(=O)(=O)NCc2ccc3c(c2)OCO3)cc1C | i | 1.25
Cc1c(-c2ccco2)[n+](=O)c2c(n1[O-])CCCCC2 | i | 0.72

(continued)
SMILES | KCNQ2 block | KCNQ2 block baseline
CC(C)=CC(=O)Nc1nnc(C(C)C)s1 | i | 1.34
Nc1ccccc1S(=O)(=O)NC1=NCCCCC1 | i | -2.12
COc1ccc2c(c1)c(C(C)=O)c(C)n2-c1ccccc1OC | i | 0.5
O=C(C1CC1)N1CCc2cc(Br)cc(S(=O)(=O)NC3CCCCC3)c21 | i | 0.39
CN1CCC2(CC1)N=C(c1ccc(F)cc1)C(=S)N2C(=O)c1ccccc1 | i | 2.36
Nc1c(Cl)ncnc1N/N=C/c1cccnc1 | i | 1.39
CC1(c2ccccc2)NC(=O)N(CC(=O)Nc2ccc([N+](=O)[O-])cc2)C1=O (stereo not drawn) | i | 3.19
Cc1ccccc1-c1noc(C(C)NC(=O)c2ccco2)n1 (stereo not drawn) | i | 0.33
COc1ccc(C(=O)C2CCCN(Cc3cccn3-c3ccc(Cl)cn3)C2)c(OC)c1 (stereo not drawn) | i | -0.04
CCCN1CCN(CCCNC(=O)c2cc3c(s2)-c2c(C)cccc2OC3)CC1 | i | 0.03
CCOC(=O)c1cnc2c([N+](=O)[O-])cnn2c1C | i | 0.18
COc1ccc(CCNC(=O)CC2SC(=NCCc3ccccc3)NC2=O)cc1 (stereo not drawn) | i | 2.83
Cc1oc(-c2cccc(Cl)c2)nc1CN1CCCC(C(=O)NC(C)c2ccc3c(c2)OCCO3)C1 (stereo not drawn) | i | 2.05
O=S1(=O)CCN2C(c3ccco3)=CSC2=N1 | i | 4.58
O=C(NCc1ccncc1)C1CCC(=O)N(CCc2ccc(Cl)cc2)C1 (stereo not drawn) | i | 0.21
O=C(NCC(c1ccco1)N1CCCCC1)c1cccc(NS(=O)(=O)c2ccc(Br)cc2)c1 (stereo not drawn) | i | -0.74
COCCCN=C1NN=C(c2cc(C)n(-c3ccccc3F)c2C)CS1 | i | -0.05
CN(CCc1ccccn1)C(=O)c1nn2c(C(F)(F)F)cc(-c3ccco3)nc2c1Cl | i | -0.91
CCOCCCNCc1ccc(OC)c(OC)c1 | i | 0.41
CCOC(=O)CCCCCN1C(=O)c2cccc3cccc(c23)C1=O | i | 0.84
C=CCN1CC(c2nc3ccccc3n2Cc2cccc3ccccc23)CC1=O (stereo not drawn) | i | -2.77
Cc1cc(CN2CCCC(C(=O)Nc3cccc(-n4cccn4)c3)C2)cc(C)c1O (stereo not drawn) | i | 0.91
O=C(Nn1cnnc1)c1cc([N+](=O)[O-])cc([N+](=O)[O-])c1 | i | 3.19
c1cncc(CNc2ncnc3sccc23)c1 | i | 2.88
O=C(NCc1cccnc1)C(=O)NCC1OCCCN1S(=O)(=O)c1ccc(F)cc1 (stereo not drawn) | i | 1.08
CC(=O)Nc1ccc(NC(=O)Nc2ccc3c(c2)N(C)C(=O)CS3)cc1 | i | 1.74
COc1ccc(CC(=O)NC(c2ccccc2)c2ccc(C)cc2)c(OC)c1 (stereo not drawn) | i | -0.8
O=C(Nc1ccc2nc(-c3ccco3)c(-c3ccco3)nc2c1)NC1CC1 | i | 0.82
O=C1/C(=C/c2ccc(O)cc2)SC(=S)N1CC1CCCO1 (stereo not drawn) | i | 0.81
CCCCNC(=O)Nc1c(C(=O)OCC)[nH]c2ccccc12 | i | -1.53
CSc1ncccc1C(=O)OCC(=O)N(CC(C)C)C1CCS(=O)(=O)C1 (stereo not drawn) | i | -0.78
COc1ccccc1C(=O)NNC(=O)c1ccccc1F | i | -0.5
Cc1cc([N+](=O)[O-])nn1CC(=O)NCCCn1ccnc1 | i | 1.4
NCCCCCc1nnc(SCC(=O)c2ccc(Cl)cc2)o1 | i | -0.49
COc1cc(C(=O)Nc2ccc3c(c2)OCCO3)ccc1OC(C)C | i | -1.67
O=C(COc1cc2oc(=O)cc(-c3ccccc3)c2cc1Cl)NCC1CCC(C(=O)O)CC1 (stereo not drawn) | i | 0.31
CCOC(=O)c1c(SC)n(-c2ccccc2)c(=S)n(-c2ccccc2)c1=O | i | 0.69
COc1ccc(CCNC(=O)Cc2cccs2)cc1 | i | -0.27
COc1ccc(CC(=O)N(Cc2cc3cc(OC)ccc3[nH]c2=O)C(C)C)cc1 | i | -0.02
CN(Cc1ccc(F)cc1)C(=O)c1ccc(NS(=O)(=O)c2ccccc2)cc1 | i | 0.02
CC(=O)c1cccc(NC(=O)N2CCC(NC(=O)c3ccco3)CC2)c1 | i | 1.95
Cc1cc(C(=O)NCc2ccccc2Cl)c2ccccc2n1 | -7.24* | 0.57*
Cc1nc(CS(=O)(=O)c2ccc(Cl)cc2)cc(Sc2ccc(Cl)cc2)n1 | i | 0.45
N=c1n(Cc2ccc(Cl)cc2)c2ccccc2n1CC(O)COc1ccccc1 (stereo not drawn) | i | -1.8
Cc1ccc(-n2cc(CN(C)Cc3ncc[nH]3)c(-c3cccc(C)c3)n2)cc1 | i | 0.21
CCOC(=O)NN=C1CN(S(=O)(=O)c2ccc(C)cc2)C1 | i | 2.07
CCOC(=S)SCC(=O)N1CCc2ccccc2C1C1C(=O)CC(C)(C)CC1=O (stereo not drawn) | i | -0.48
O=C(NCC(=O)N(Cc1cccs1)C(C(=O)NC1CCCC1)c1cccnc1)c1ccco1 (stereo not drawn) | i | -0.84
CCCCc1nn(-c2cc(Cl)ccc2OC)c2c1C(=O)CC(C)(C)C2 | i | 0.51
COc1ccc(CCn2cnc(=O)c(C#N)c2C)cc1OC | i | 0.65
CCCOc1ccccc1NC(=O)CC1Nc2ccccc2NC1=O (stereo not drawn) | i | 1.07
COc1cc(C)c(-c2[nH]ncc2-c2csc(C)n2)c(O)c1 | i | -1.1
Cc1ccccc1COc1ccc(/C=N/NC(=O)c2nnn(-c3nonc3N)c2CN2CCC(C)CC2)cc1 | i | 0.07
CCC(=O)N1CCCc2cc(S(=O)(=O)N3CCCc4ccccc43)ccc21 | i | -1.28
CCCCN(C)C(=O)c1nc2ccccn2c1CN1CCN(c2ccccn2)CC1 | i | -1.57
CN(C)c1ccc(S(=O)(=O)N2CCCCC2)cc1NC(=O)CN1C(=O)NC2(CCCC2)C1=O | i | 1.95
COc1ccc(-c2cc(C(=O)NN)[nH]n2)cc1OC | i | 0.64
O=C(C1CCCO1)N1CCN(Cc2c(O)ccc3ccccc23)CC1 (stereo not drawn) | i | -0.92
CN(Cc1nccn1C)C(=O)c1ccc(OC2CCN(CCc3ccccc3)CC2)cc1 | i | 0.04
COc1cccc(-c2ccc(NC(=O)C3CCCN(Cc4nccn4C)C3)cc2)c1 (stereo not drawn) | i | 0.88
COc1ccc(Cc2n[nH]c(=S)n2N)cc1OC | i | -1.27
CCCN(CC(=O)Nc1ccccc1C)C(=O)C1CC(=O)N(Cc2ccccc2)C1 (stereo not drawn) | i | 1.28

In the list so far, these have fluorine:
SMILES | KCNQ2 block | KCNQ2 block baseline
O=C(NCC(c1cccs1)N1CCOCC1)c1cc(-c2ccc(F)cc2)nc2ccccc12 (stereo not drawn) | i | -1.61
Cc1ccccc1-c1nn(-c2ccc(F)cc2F)cc1CNCC(C)O (stereo not drawn) | i | 0.42
NC(=O)c1nsc(C(=O)N(Cc2ccc(F)cc2)C(C(=O)NCC2CCCO2)c2ccc(O)cc2)c1N (stereo not drawn) | i | 1.16
COc1ccc(C(c2nnnn2Cc2ccc(F)cc2)N2CCN(c3ccc(OC)cc3)CC2)cc1 (stereo not drawn) | i | -1.87
O=C1Nc2c(c(=O)[nH]c(=O)n2-c2ccccc2)C1(Nc1ncccn1)C(F)(F)F (stereo not drawn) | i | -0.08
Cc1cc(=O)oc2c(C)c(OCC(=O)N3CCN(c4ccc(F)cc4)CC3)ccc12 | i | -1.37
CN1CCC2(CC1)N=C(c1ccc(F)cc1)C(=S)N2C(=O)c1ccccc1 | i | 2.36
COCCCN=C1NN=C(c2cc(C)n(-c3ccccc3F)c2C)CS1 | i | -0.05
CN(CCc1ccccn1)C(=O)c1nn2c(C(F)(F)F)cc(-c3ccco3)nc2c1Cl | i | -0.91
O=C(NCc1cccnc1)C(=O)NCC1OCCCN1S(=O)(=O)c1ccc(F)cc1 (stereo not drawn) | i | 1.08
COc1ccccc1C(=O)NNC(=O)c1ccccc1F | i | -0.5
CN(Cc1ccc(F)cc1)C(=O)c1ccc(NS(=O)(=O)c2ccccc2)cc1 | i | 0.02
